Screens as filed in PubChem BioAssay.
PostGolgi ctrl: growth of the yeast control strain, post-Golgi counter-screen; efflux-deficient yeast background strain, growth absorbance A615, 16 h; inhibition, % at 10 µM; 98,000 tested, 5% active
S1P2 antag: S1P2 (human) receptor antagonism; O95136; cell-based S1P2 antagonist assay, inhibition at 5 uM; inhibition, % at 5 µM; 97,000 tested, 0.21% active; AID 736; in the data active means inhibition above about 45%;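 further: CRE beta-lactamase reporter cells expressing human S1P2 stimulated with S1P; 0% = agonist at EC80 alone and 100% = agonist plus reference antagonist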
PTPN22 act: LYP (human) phosphatase activation; Q9Y2R2; recombinant LYP, DiFMUP fluorescence; 0 = plate median, 100 = signal doubled; activation, % at 2 µM; 96,000 tested, 0.11% active; AID 697;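 active means activation at 2 µM above a set limit, the mean plus 5 SD, cut at about 37% in these data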
Rev-RRE block: HIV Rev-RRE protein-RNA interaction inhibition; inhibition, % at 8 µM; Rev peptide-RRE RNA binding, FRET; AID 704; P05866; 97,000 tested, 0.79% active;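 active means inhibition above the screen-wide mean plus 3 SD, cut at about 35% in these data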;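 further: 0% = median DMSO wells and 100% = median Neomycin B control wells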
Target sequence (P05866 whole entry, looked up): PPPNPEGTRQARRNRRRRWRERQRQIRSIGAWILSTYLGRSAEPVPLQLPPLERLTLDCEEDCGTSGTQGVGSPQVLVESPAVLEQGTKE
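Material: labelled RRE RNA duplex and labelled Rev peptide / Buffer or medium: HEPES pH 7.5 salt buffer with EDTA / Compound dosing: single point, 8 µM final nominal compound concentration / Benchmarks: DMSO low control, neomycin B high control / Timing: 5 min preincubation and 15 min binding, 25 °C / Technique: FRET fluorescence readout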
S1P2 ag: agonists of human S1P2 receptor | O95136 | S1P2-expressing cell line, agonist reporter read-out | activation, % at 4.5 µM | 97,000 tested, 0.46% active | AID 729; in the data active means activation above about 16%;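 further: 0% = vehicle low control and 100% = maximal reference agonist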
EphB4 ephrin blk: blocks human EphB4 binding to ephrin-B2. P54760. EphB4 LBD / TNYL-RAW-Alexa532 peptide, fluorescence polarization. inhibition, % at 7 µM. 97,000 tested, 0.15% active. AID 720;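 active means inhibition above the screen-wide mean inhibition plus 3 SD, cut at about 15% in these data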;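 further: 0% = DMSO wells and 100% = excess unlabeled TNYL-RAW peptide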
Target sequence (P54760 whole entry, looked up, the tested form may be a part): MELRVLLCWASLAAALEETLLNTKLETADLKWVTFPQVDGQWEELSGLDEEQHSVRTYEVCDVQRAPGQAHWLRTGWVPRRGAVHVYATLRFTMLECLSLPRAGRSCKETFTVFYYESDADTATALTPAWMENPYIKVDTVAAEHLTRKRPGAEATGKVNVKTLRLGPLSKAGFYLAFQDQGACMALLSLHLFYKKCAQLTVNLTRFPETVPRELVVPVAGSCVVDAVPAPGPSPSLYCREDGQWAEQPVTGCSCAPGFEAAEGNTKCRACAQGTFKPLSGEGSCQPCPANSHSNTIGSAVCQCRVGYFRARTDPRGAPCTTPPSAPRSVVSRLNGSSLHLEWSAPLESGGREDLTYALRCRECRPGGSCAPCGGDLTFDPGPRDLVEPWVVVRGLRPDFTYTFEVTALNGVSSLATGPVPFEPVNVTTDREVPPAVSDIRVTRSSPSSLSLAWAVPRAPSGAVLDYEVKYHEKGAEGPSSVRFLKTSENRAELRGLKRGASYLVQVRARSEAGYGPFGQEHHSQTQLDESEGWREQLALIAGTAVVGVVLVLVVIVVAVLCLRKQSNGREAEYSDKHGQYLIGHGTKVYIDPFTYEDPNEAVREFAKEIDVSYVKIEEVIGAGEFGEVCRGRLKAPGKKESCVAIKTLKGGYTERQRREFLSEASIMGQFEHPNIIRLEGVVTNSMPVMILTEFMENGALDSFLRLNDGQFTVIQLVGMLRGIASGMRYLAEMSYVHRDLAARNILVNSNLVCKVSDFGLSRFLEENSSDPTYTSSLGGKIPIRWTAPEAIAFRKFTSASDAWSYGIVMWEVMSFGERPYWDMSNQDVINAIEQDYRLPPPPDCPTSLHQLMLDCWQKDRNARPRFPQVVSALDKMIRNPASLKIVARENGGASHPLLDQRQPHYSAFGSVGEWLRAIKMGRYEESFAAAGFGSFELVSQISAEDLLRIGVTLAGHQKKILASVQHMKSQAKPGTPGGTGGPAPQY
PTPN22 inh 2: inhibitors of human LYP (PTPN22) phosphatase; Q9Y2R2; recombinant LYP catalytic domain, DiFMUP fluorescence; inhibition, % at 2 µM; 96,000 tested, 0.21% active; AID 640;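 active means inhibition at 2 µM at or above a set limit, the screen mean plus 3 SD, cut at about 24% in these data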;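 further: 0% = DMSO with enzyme and 100% = enzyme fully blocked by orthovanadate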
PostGolgi yeast: growth inhibition of a yeast mutant, post-Golgi transport screen | inhibition, % at 10 µM | post-Golgi transport phenotypic cell assay | AID 739 | 98,000 tested, 0.9% active;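 further: yeast cells grown in 1536-well plates; yeast grown about 18 h at 30C before absorbance read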
Active calls of the source: *; / = not tested or not shown; [ ] = dose if it differs, or a comment. Unless noted, no stated cut-off is given here; in the data, active means inhibition above about 30%; inactive means the rest. The list is partial. The share of hits here may be higher or lower than overall.

The first 14 records as a preview:
item	canonical_smiles	S1P2 antag	PostGolgi ctrl	PTPN22 act	EphB4 ephrin blk
1	O=C(c1ccco1)N1CCN(c2ncnc3sc4c(c23)CCC4)CC1	14	3	-8	-3
2	CCc1sc(C(=O)NC2CCN(C)CC2)cc1Br	3	4	-7	0
3	CC(=O)Cc1nsc(NC(=O)c2c(-c3ccccc3Cl)noc2C)n1	-12	15	5	-7
4	COc1ccc(S(=O)(=O)N(CCCN2CCOCC2)Cc2cccc3ccccc23)cc1	21	2	5	-3
5	COc1ccc(-c2nc(N)ncc2-c2csc(C)n2)c(O)c1	10	4	-6	12
6	CCOCC(=O)Nc1cc(C(=O)Nc2cccc(C)c2C)ccc1Cl	11	1	2	10
7	Cc1cc(C)n(-c2ccc(C(=O)Oc3ccc4c(c3)OCO4)cc2)n1	3	-1	-7	1
8	CS(=O)(=O)N(Cc1ccco1)Cc1ccccc1Cl	-4	16	0	-1
9	COc1c(C)cccc1C(=O)NC(=S)Nc1ccc2c(c1)Cc1ccccc1-2	5	8	-8	4
10	Clc1ccc(-c2nnc(-c3ccccc3Cl)o2)cc1	-3	-2	9	-3

item	S1P2 ag	PostGolgi yeast	Rev-RRE block	PTPN22 inh 2
1	-8	-9	1	9
2	-3	5	2	6
3	-5	4	8	-7
4	-2	6	7	-6
5	-5	-5	3	7
6	-4	-1	8	1
7	-8	-7	6	6
8	-7	19	7	0
9	-5	13	7	10
10	-6	2	9	-12

item	canonical_smiles	S1P2 antag	PostGolgi ctrl	PTPN22 act	EphB4 ephrin blk
11	COc1ccc(C2CC2/C(C)=N/OC(=O)c2cccs2)cc1 (centres undefined)	12	15	2	-8
12	O=C(CCn1nnc2ccccc2c1=O)NCC1CCC(C(=O)O)CC1 (centres undefined)	2	4	2	-1
13	O=C(N/C=N/OCc1cccc(C(F)(F)F)c1)N1OC[C@@H]2COc3ccc4ccccc4c3[C@@H]21	13	7	-8	0
14	COCCn1nnnc1C(c1cc2cc(C)ccc2[nH]c1=O)N1CCc2ccccc21 (centres undefined)	-2	9	2	4

item	S1P2 ag	PostGolgi yeast	Rev-RRE block	PTPN22 inh 2
11	-2	1	11	-2
12	-6	5	3	-3
13	-9	1	16	11
14	-2	3	10	-5

All compounds of this part, previewed entries included:
item	canonical_smiles	S1P2 antag	PostGolgi ctrl	PTPN22 act	EphB4 ephrin blk
1	O=C(c1ccco1)N1CCN(c2ncnc3sc4c(c23)CCC4)CC1	14	3	-8	-3
2	CCc1sc(C(=O)NC2CCN(C)CC2)cc1Br	3	4	-7	0
3	CC(=O)Cc1nsc(NC(=O)c2c(-c3ccccc3Cl)noc2C)n1	-12	15	5	-7
4	COc1ccc(S(=O)(=O)N(CCCN2CCOCC2)Cc2cccc3ccccc23)cc1	21	2	5	-3
5	COc1ccc(-c2nc(N)ncc2-c2csc(C)n2)c(O)c1	10	4	-6	12
6	CCOCC(=O)Nc1cc(C(=O)Nc2cccc(C)c2C)ccc1Cl	11	1	2	10
7	Cc1cc(C)n(-c2ccc(C(=O)Oc3ccc4c(c3)OCO4)cc2)n1	3	-1	-7	1
8	CS(=O)(=O)N(Cc1ccco1)Cc1ccccc1Cl	-4	16	0	-1

item	S1P2 ag	PostGolgi yeast	Rev-RRE block	PTPN22 inh 2
1	-8	-9	1	9
2	-3	5	2	6
3	-5	4	8	-7
4	-2	6	7	-6
5	-5	-5	3	7
6	-4	-1	8	1
7	-8	-7	6	6
8	-7	19	7	0

Continued.
item	canonical_smiles	S1P2 antag	PostGolgi ctrl	PTPN22 act	EphB4 ephrin blk
9	COc1c(C)cccc1C(=O)NC(=S)Nc1ccc2c(c1)Cc1ccccc1-2	5	8	-8	4
10	Clc1ccc(-c2nnc(-c3ccccc3Cl)o2)cc1	-3	-2	9	-3
11	COc1ccc(C2CC2/C(C)=N/OC(=O)c2cccs2)cc1 (centres undefined)	12	15	2	-8
12	O=C(CCn1nnc2ccccc2c1=O)NCC1CCC(C(=O)O)CC1 (centres undefined)	2	4	2	-1
13	O=C(N/C=N/OCc1cccc(C(F)(F)F)c1)N1OC[C@@H]2COc3ccc4ccccc4c3[C@@H]21	13	7	-8	0
14	COCCn1nnnc1C(c1cc2cc(C)ccc2[nH]c1=O)N1CCc2ccccc21 (centres undefined)	-2	9	2	4
15	Cc1ccc(C2C3=C(NCCN=C3c3ccccc3)C(=O)N2c2ccccc2)cc1 (centres undefined)	9	3	-6	2
16	COCCN1CC(O)=C(c2nc3ccccc3c(=O)[nH]2)C1=N	3	9	-5	3

item	S1P2 ag	PostGolgi yeast	Rev-RRE block	PTPN22 inh 2
9	-5	13	7	10
10	-6	2	9	-12
11	-2	1	11	-2
12	-6	5	3	-3
13	-9	1	16	11
14	-2	3	10	-5
15	-1	0	7	6
16	-1	-16	16	3

(more compounds)
item	canonical_smiles	S1P2 antag	PostGolgi ctrl	PTPN22 act	EphB4 ephrin blk
17	CS(=O)(=O)N(CC(=O)N/N=C/c1cc2c(cc1Br)OCO2)c1ccccc1Br	-15	15	-7	10
18	Clc1ccc(-c2nc(NCCN3CCOCC3)c3ccccc3n2)cc1	-4	6	-2	1
19	COc1cccc(Nc2ncnc3ccccc23)c1	-1	1	-6	-4
20	COc1cccc(CNC(=O)c2ccc(S(=O)(=O)N3CCCC3)cc2)c1	-11	14	8	0
21	O=c1cc(CN2CCN(c3ccccc3)CC2)c2c(ccc3ccccc32)o1	15	32*	-7	-2
22	CSc1ccc(NC(=O)NCCCN2CCN(c3ccccc3F)CC2)cc1	2	22	-3	-7
23	Cc1cc(C)n(-c2ccc(C(=O)Nc3ccccn3)cc2)n1	22	-2	3	0
24	O=C(/C=C/NNC(=O)c1cccc(Br)c1)c1ccccc1	-14	8	-4	4

item	S1P2 ag	PostGolgi yeast	Rev-RRE block	PTPN22 inh 2
17	-9	-5	1	12
18	-4	9	4	-1
19	-2	10	5	7
20	2	2	-1	-12
21	-1	6	8	6
22	-6	-10	-5	2
23	0	11	-2	-3
24	-3	2	1	5

Following part:
item	canonical_smiles	S1P2 antag	PostGolgi ctrl	PTPN22 act	EphB4 ephrin blk
25	CCn1c(COc2ccc(C(C)C)cc2)nnc1SCC(=O)Nc1nccs1	-3	7	3	-2
26	CC1CCN(CCCNC(=O)CCCNC(=O)Cn2cnc3sc4c(c3c2=O)CCCC4)CC1	11	0	12	2
27	C=CCn1c(=O)[nH]c2cc(C(=O)N3CCN(c4cccc(Cl)c4)CC3)ccc2c1=O	3	2	-10	0
28	Cc1ccc(NC2SC(=O)N(CC(=O)O)C2=O)cc1 (centres undefined)	12	2	-4	-4
29	Cc1occc1-c1nnc(SCC(=O)c2ccc(Cl)cc2)n1C	-5	-1	-2	-6
30	O=C(CN1CCOCC1)N1CCN(c2nnc(-c3ccccc3)c3ccccc23)CC1	7	4	4	-8
31	O=C(Nc1cccc2nsnc12)c1ccc(-c2cccc(Cl)c2)o1	-11	-3	-10	-4
32	O=C(O)c1cccc(S(=O)(=O)N2CCSCC2)c1	2	13	-10	1

item	S1P2 ag	PostGolgi yeast	Rev-RRE block	PTPN22 inh 2
25	-1	-5	5	-6
26	-2	1	3	-11
27	-4	0	5	8
28	-5	4	12	5
29	0	-1	1	2
30	-5	-5	-2	0
31	-4	-3	29	14
32	-5	-1	6	9

(listing goes on)
item	canonical_smiles	S1P2 antag	PostGolgi ctrl	PTPN22 act	EphB4 ephrin blk
33	Cn1nc(C(=O)Nc2sccc2C(N)=O)ccc1=O	-7	8	-4	3
34	CCn1c(COc2ccc(C)cc2)nnc1SCC(=O)Nc1ccc(S(N)(=O)=O)cc1	-12	-2	6	-6
35	COc1ccc(C(=O)CCC(=O)O)c(C)c1	1	3	2	-1
36	O=CN1CC(=O)N(c2ccccc2)c2c([nH]c3ccccc23)C1	22	5	3	0
37	C=CCSc1nnc2c(n1)[nH]c1c(C)cccc12	-17	25	0	0
38	CN(C)c1ccc(/C=N/NC(=O)CN(c2ccccc2Cl)S(C)(=O)=O)cc1Br	-44	-2	-5	-4
39	O=C(CN1C(=O)c2ccccc2C1=O)N1CCN(c2nnc(-c3ccccc3)c3ccccc23)CC1	-4	1	-9	-5
40	O=[N+]([O-])c1cc(-c2n[nH]c(-c3ccccc3)n2)cc([N+](=O)[O-])c1	3	4	13	4

item	S1P2 ag	PostGolgi yeast	Rev-RRE block	PTPN22 inh 2
33	-6	-4	8	7
34	-8	1	15	-9
35	-8	1	4	-1
36	-6	8	17	-6
37	-6	-7	3	-2
38	17*	-3	1	8
39	-3	1	-1	8
40	1	12	-3	-15

Additional entries
item	canonical_smiles	S1P2 antag	PostGolgi ctrl	PTPN22 act	EphB4 ephrin blk
41	CCOC(=O)c1ccc(NC(=O)C2(c3ccc(OC)cc3)CCCC2)cc1	2	-4	9	-11
42	CCCCn1nnnc1NCc1cc(OC)c(OC)cc1OC	-3	-10	4	0
43	Cc1csc(NC(=O)c2cccc(S(=O)(=O)N3CCCCC3)c2)n1	10	14	-1	6
44	COC(=O)c1ccccc1NC(=O)c1c(Br)cnn1C	-7	0	-2	0
45	FC(F)(F)c1cc(-c2ccc(Cl)cc2)nc(NCc2cccnc2)n1	-2	8	4	4
46	CC(NC(=O)CCc1ccc(S(=O)(=O)NC2CCCCC2)cc1)c1ccccc1 (centres undefined)	-1	-10	-16	3
47	CS(=O)(=O)c1ccc2nc(NC(=O)C3COc4ccccc4O3)sc2c1 (centres undefined)	-6	7	21	-5
48	CC(=O)NC(Cc1ccc(F)cc1)C(=O)NC1CCN(c2nnnn2-c2ccccc2)CC1 (centres undefined)	5	-2	1	1

item	S1P2 ag	PostGolgi yeast	Rev-RRE block	PTPN22 inh 2
41	-5	16	3	-4
42	-3	-7	7	-6
43	-4	-8	9	-1
44	-1	11	0	4
45	0	6	7	-1
46	-6	-5	9	15
47	-3	2	-1	-24
48	-2	-9	-2	-1

Later entries.
item	canonical_smiles	S1P2 antag	PostGolgi ctrl	PTPN22 act	EphB4 ephrin blk
49	Cn1nc(-c2ccccc2)c2nc3ccccc3nc21	20	6	8	3
50	O=C(CCn1nnc2ccccc2c1=O)N[C@@H](Cc1ccccc1)C(=O)O	1	0	0	1
51	Cc1cnc(NC(=O)c2ccco2)s1	27	3	-2	0
52	NC(=O)C(c1ccc(Sc2ccccc2)nn1)c1ccc(Cl)cc1Cl (centres undefined)	-24	10	-2	-5
53	c1ccc(-c2cnc(-c3cccnc3)o2)cc1	9	6	5	-6
54	Cc1onc(-c2ccccc2)c1-c1nc2ccccc2c(=O)o1	13	32*	-5	4
55	C(=C\c1ccccc1)/CSc1nnc(-c2ccccn2)n1Cc1ccco1	-29	45*	-4	0
56	Cc1oc2c(C)c(O)ccc2c(=O)c1-c1ccc2ccccc2n1	-12	-6	9	3

item	S1P2 ag	PostGolgi yeast	Rev-RRE block	PTPN22 inh 2
49	1	11	92*[fluorescence artefact?]	-11
50	-3	-9	1	-2
51	-6	1	11	1
52	0	6	12	0
53	-2	7	4	-6
54	-6	12	11	5
55	0	2	5	4
56	-1	17	5	-4

(more compounds)
item	canonical_smiles	S1P2 antag	PostGolgi ctrl	PTPN22 act	EphB4 ephrin blk
57	Cc1ccc(-n2nc3c4c(cccc4c2=O)-c2ccccc2-3)cc1	-13	11	-28	-5
58	CCOC(=O)c1sc(NC(=O)CSc2nccc(C)n2)c(C#N)c1C	0	2	7	-13
59	OCCN(/C=N/c1nc(-c2ccc(Br)cc2)cs1)CCO	9	3	8	-7
60	O=C1c2ccccc2-c2ncnc3cccc1c23	-2	/	-1	4
61	COc1ccc(-c2nnc(SCCC(=O)O)n2C)cc1OC	9	3	3	0
62	Cc1[nH]c2ccccc2c1C1(O)C(=O)N(Cc2ccc3c(c2)OCO3)c2ccccc21 (centres undefined)	-13	31*	0	-7
63	COc1ccc(OCC(=O)Nc2cccc(NC(=O)COc3ccc(OC)cc3)n2)cc1	3	5	0	-7

item	S1P2 ag	PostGolgi yeast	Rev-RRE block	PTPN22 inh 2
57	-1	2	7	32*
58	-1	-3	3	-4
59	-3	-4	2	-5
60	-4	/	5	-3
61	-1	11	11	-4
62	-7	5	7	-1
63	2	-4	0	-8
